Source: PubChem BioAssay (National Center for Advancing Translational Sciences (NCATS))
TCR activator: activates T cell receptor signaling | Potency, µM (titrated, usually from 9.22 µM), without a hit: at the top dose activation of IL-2 secretion, hits mostly activators | AID 504894 | primary human leukocytes, anti-CD3, IL-2 HTRF, 48 h | 330,000 tested, under 10 active; further: % of control where 0% means no effect
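TCR engagement came from a-CD3 beads alone, with compounds added to primary human leukocytes for 48 hr. Secreted IL-2 bridged europium cryptate- and d2-labelled anti-IL-2 antibodies, giving FRET emission at 665nm after 320nm excitation.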
ELG1 repair inh: blocks ELG1-dependent DNA repair in HEK293T cells. HEK293T ELG1-luciferase reporter, luminescence, 16 h; DNA damage induced by 5-fluorouridine. Potency, µM (top dose mostly 46.1 µM), for the others: top-dose activity change, negative = inhibition, usual class: inhibitors. 330,000 compounds, 2.3% hits. AID 504467; further: potency means the concentration at half of the fitted maximal effect; on the % scale 0 is the no-effect control and ±100 the full control effect; nearly all actives have a fitted effect of over 55% in size
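In this reporter screen, reduction of luminescence relative to DMSO vehicle indicated activity. Compounds and 5-fluorouridine were added together to 2,000 cells per well, incubated for 16 hr at 37 °C, then developed with ONE-Glo.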
KCNH2 3.1 block: KCNH2 3.1 (human) potassium channel inhibition; U2OS KCNH2 3.1, thallium flux FluxOr; stronger effect = lower value; activity change, % (tested at about 1.8 µM); 340,000 compounds, 0.95% hits; AID 720553;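 active means maximum activity change below -70%; inconclusive means maximum activity change from -70% to -50%; inactive means maximum activity change above -50%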;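 further: thallium influx rate constant from kinetic fluorescence after stimulation buffer; on the % scale 0 is the no-effect control and ±100 the full control effect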
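Measured as rate of thallium-driven FluxOr signal in transduced U2OS cells carrying the 3.1 channel, read kinetically for 2 min upon stimulation; values are rate constants scaled to DMSO control wells.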
AT treatment: potential ataxia-telangiectasia treatment; Potency, µM (top dose mostly 57.5 µM), for inactives: at the top dose activation, most hits filed as activators; 320,000 compounds, 0.19% hits; AID 485349; […] A-T fibroblasts, KAP-1 phosphorylation AlphaLISA; neocarzinostatin DNA damage 30 min before lysis; further: potency means the concentration at half of the fitted maximal effect; % of control where 0% means no effect; nearly all actives have a fitted effect of over 45% in size
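ATM-like activity read as KAP-1 phosphorylation via AlphaLISA donor/acceptor antibody pairs after lysis and 6 hr at 25C. Cells were ATM-null patient fibroblasts ([…], hTERT), dosed 60 min, then exposed to the DSB inducer NCS for 30 min.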
TRPV1 agonist: activates the human vanilloid receptor TRPV1 | TRPV1-expressing cells, Fluo-8 calcium influx, agonist mode | activation, % at 8.33 µM | 320,000 compounds, 0.19% hits | AID 540275; in the data active means activation above about 80%; inconclusive means between about 30% and that limit; further: 0% is about no effect
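Cells expressing TRPV1 were dye-loaded with Fluo-8 and read kinetically: 10 s baseline, 3 min after compound (agonist portion), then 2 min after EC20 capsaicin (allosteric enhancer portion). Calcium-bound dye fluorescence at 480/520 nm.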
Eya2 inh: inhibitors of human Eya2 phosphatase activity; 330,000 compounds, 0.006% hits; O00167; Potency, µM (series often up to 76.9 µM), for the others: at the highest dose activity, negative = inhibition, most hits filed as inhibitors; recombinant Eya2, OMFP fluorescence dephosphorylation (OMFP is methylfluorescein phosphate); further: potency means the concentration at half of the fitted maximal effect; on the % scale 0 is the no-effect control and ±100 the full control effect
Target sequence (O00167 whole entry, looked up): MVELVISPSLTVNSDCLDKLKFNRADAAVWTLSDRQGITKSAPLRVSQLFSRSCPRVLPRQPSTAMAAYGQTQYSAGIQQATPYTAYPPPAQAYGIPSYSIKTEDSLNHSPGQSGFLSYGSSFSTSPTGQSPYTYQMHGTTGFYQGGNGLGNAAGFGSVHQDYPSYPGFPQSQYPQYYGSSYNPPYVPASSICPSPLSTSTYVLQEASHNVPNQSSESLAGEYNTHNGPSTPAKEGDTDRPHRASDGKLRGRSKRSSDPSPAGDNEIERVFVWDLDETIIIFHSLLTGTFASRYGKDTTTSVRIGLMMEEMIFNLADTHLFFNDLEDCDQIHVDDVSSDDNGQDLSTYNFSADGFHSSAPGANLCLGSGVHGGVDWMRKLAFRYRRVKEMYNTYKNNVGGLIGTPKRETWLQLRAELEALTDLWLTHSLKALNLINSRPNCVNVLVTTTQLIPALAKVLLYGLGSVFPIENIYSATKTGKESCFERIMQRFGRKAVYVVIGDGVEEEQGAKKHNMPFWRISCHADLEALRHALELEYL
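Eya2 protein (added as 0.2 uM solution) was preincubated with compound for 10 min at ambient temperature in 50 mM HEPES pH 7.5, 50 mM NaCl, 5 uM MgCl2, 0.05% BSA, 1 mM DTT. OMFP (added at 50 uM) then reacted 10 min; fluorescence read at 485/525 nm.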
KCNH2 WT inh: KCNH2 (human, wildtype) channel inhibition; Q12809; AID 720551; activity change, % at 1.84 µM; 340,000 compounds, 0.37% hits; U2OS, BacMam KCNH2, thallium flux FluxOr; stronger effect = lower value;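 active means maximum activity change below -70%; inconclusive means maximum activity change between -70% and -50%; inactive means maximum activity change above -50%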; further: on the % scale 0 is the no-effect control and ±100 the full control effect
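U2OS cells were transduced with wild-type KCNH2 virus (2.03 x 10^8 / mL) for 4 h at room temperature, then cultured overnight at 37 C. Thallium flux was read with FluxOr dye. Rate constants were normalized to DMSO controls.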
USP2a block: inhibitors of human ubiquitin-specific protease USP2a; O75604; USP2 core, Ub-CHOP2 coupled fluorogenic reporter, 485/531; Potency, µM (doses to about 38.3 µM), inactives show at the top dose activity change, negative = inhibition, actives largely listed as inhibitors; AID 463254; 330,000 compounds, 0.01% hits;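 further: potency means the concentration at half of the fitted maximal effect; plate controls were DMSO wells for no effect and full inhibition by NEM control for full effect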
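USP2 core (10nM final) preincubated 30min RT with compound in 20mM Tris-HCl pH 8.0, 2mM CaCl2, 2mM beta-mercaptoethanol, 0.05% CHAPS; 25nM Ub-CHOP2 plus 25nM reporter substrate added, fluorescence (Ex485/Em531) read after 60min.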
Mito fusion act: inhibitors of mitochondrial division or activators of mitochondrial fusion. S. cerevisiae fusion-defective mutant growth rescue, CellTiterGlo 48 h. Potency, µM (series often up to 46.1 µM), without a hit: at the highest dose growth rescue (activation), most hits filed as activators. 320,000 compounds, 0.23% hits;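 further: potency means the concentration at half of the fitted maximal effect; % of control where 0% means no effect; nearly all actives have a fitted effect of over 45% in size; temperature-sensitive fusion mutants such as fzo1-1 at 37 °C on non-fermentable ethanol glycerol medium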
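Growth-rescue viability read-out: after 48 h at the non-permissive 37C in glycerol/ethanol YPEG, yeast mitochondrial fusion mutants are measured by CellTiterGlo luminescence; compounds (23 nl pinned per well) restoring growth score as division inhibitors or fusion activators.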
The depositor's hits bear a star; [ ] = dose if it differs, or a comment. Unless noted, the call rests on the fitted dose curve; in most records, active means well fitted curve in the direction sought with a large enough effect; inconclusive means small, poorly fitted or top-dose-only effect, or another doubt; inactive means no such curve, though single readings can be large; an effect the other way counts as inactive or inconclusive.

For CC(C)CC(C(=O)N1CCOCC1)N1Cc2ccccc2C1=O (configuration not stated) the results were TCR activator 0%, ELG1 repair inh 1%, KCNH2 3.1 block 0, AT treatment 1%, TRPV1 agonist 2, Eya2 inh 7%, KCNH2 WT inh 8, USP2a block 5% and Mito fusion act -33%[inhibitor].
`C/C(CC(C)C)=N\Oc1nc(C)cc(C)n1` gave TCR activator 3%, ELG1 repair inh 23%, KCNH2 3.1 block 14, AT treatment 0%, TRPV1 agonist 4, Eya2 inh 8%, KCNH2 WT inh -3, USP2a block 2% and Mito fusion act -7%.
`C/C(Sc1nnc(Cc2ccccc2)o1)=C(\O)c1ccccc1` gave TCR activator 1%, KCNH2 3.1 block -12 and KCNH2 WT inh -3.
For CCc1ccccc1N(C(=O)c1ccco1)C(C(=O)NC1CCCC1)c1cccnc1 (configuration not stated) the results were TCR activator 1%, ELG1 repair inh 7%, KCNH2 3.1 block -19, AT treatment -6%, TRPV1 agonist 0, Eya2 inh -11%, KCNH2 WT inh 11, USP2a block 7% and Mito fusion act 5%.
For CCN(c1cccc(C)c1)C(C(=O)Nc1ccc(OC)cc1)c1cc2c(cc1[N+](=O)[O-])OCO2 (configuration not stated) the results were TCR activator 5%, ELG1 repair inh -6%, KCNH2 3.1 block -4, AT treatment -12%, TRPV1 agonist -5, Eya2 inh 4%, KCNH2 WT inh 7, USP2a block 2% and Mito fusion act 16%.
For COc1cc(OC)c(OC)cc1/C=N/n1c(C)nnc1C the results were TCR activator 2%, ELG1 repair inh inconclusive, KCNH2 3.1 block 0, AT treatment 3%, TRPV1 agonist 0, Eya2 inh -6%, KCNH2 WT inh 27, USP2a block 1% and Mito fusion act 1%.
Screening O=C(NC1CCCC1)C(c1ccco1)N(C(=O)c1ccco1)c1ccc(F)cc1 (configuration not stated) returned TCR activator -8%, ELG1 repair inh -3%, KCNH2 3.1 block -3, AT treatment 0%, TRPV1 agonist 5, Eya2 inh 11%, KCNH2 WT inh -23, USP2a block 2% and Mito fusion act 1%.
`COc1ccc(-c2cc3ccccc3oc2=O)cc1NC(=S)NC(=O)c1ccc2c(c1)OCCO2` gave TCR activator 8%, ELG1 repair inh inconclusive, KCNH2 3.1 block 4, AT treatment 3%, TRPV1 agonist 4, Eya2 inh -7%, KCNH2 WT inh 8, USP2a block 1% and Mito fusion act 3%.
For COc1ccc(/C=C/C(=O)c2ccoc2)cc1 the results were TCR activator -9%, ELG1 repair inh inconclusive, KCNH2 3.1 block -3, AT treatment 4%, TRPV1 agonist inconclusive, Eya2 inh 8%, KCNH2 WT inh 9, USP2a block 2% and Mito fusion act 2%.
Screening COc1ccc(N(C(C)=O)S(=O)(=O)c2cccc3cccnc23)cc1 returned TCR activator 7%[46.1 µM], ELG1 repair inh -2%, KCNH2 3.1 block 3, AT treatment 0%, TRPV1 agonist 0, Eya2 inh 4%, KCNH2 WT inh 24, USP2a block 0% and Mito fusion act 5%.
CN(C)/C=N/c1nc(Sc2ccc(C(F)(F)F)cc2[N+](=O)[O-])n[nH]1 was read as TCR activator 1%, ELG1 repair inh 16%, KCNH2 3.1 block 5, AT treatment -4%, Eya2 inh -3%, KCNH2 WT inh -12, USP2a block 1% and Mito fusion act 0%.
Screening CCCSc1ncc(Cl)c(C(=O)Nc2ccc(S(=O)(=O)N3CC(C)OC(C)C3)cc2)n1 (configuration not stated) returned ELG1 repair inh inconclusive, KCNH2 3.1 block -13, AT treatment -2%, TRPV1 agonist -1, Eya2 inh -10%, KCNH2 WT inh -4, USP2a block -8% and Mito fusion act 1%.
`Clc1ccc(C2C3=C(Nc4ncnn42)c2ccccc2CC3)cc1` (configuration not stated) gave ELG1 repair inh -10%, AT treatment 9%, TRPV1 agonist 1, Eya2 inh -8%, USP2a block -3% and Mito fusion act -6%.
`COc1ccc(NS(=O)(=O)c2cc(C)ccc2NC(=O)c2cc(C)oc2C)cc1` gave TCR activator 2%, ELG1 repair inh inconclusive, KCNH2 3.1 block 4, AT treatment -23%, TRPV1 agonist -1, Eya2 inh -17%, KCNH2 WT inh 1, USP2a block -10% and Mito fusion act 6%.
For COc1ccc(Br)cc1/C=N/n1c(C)nnc1C the results were TCR activator 1%[46.1 µM], ELG1 repair inh inconclusive, KCNH2 3.1 block 9, AT treatment 2%, TRPV1 agonist 0, Eya2 inh 5%, KCNH2 WT inh 3, USP2a block 3% and Mito fusion act -2%.
`COC(=O)[C@H](C(C)C)N(Cc1ccccc1)S(=O)(=O)CCNC1CCCC1` gave TCR activator -2%[46.1 µM], ELG1 repair inh 2%, KCNH2 3.1 block -18, AT treatment 12%, Eya2 inh 2%, KCNH2 WT inh -3 and USP2a block -1%.
Screening Cc1ccc(S(=O)(=O)Nc2cc(=O)[nH]c(SCC(=O)Nc3ccccc3C(F)(F)F)n2)cc1 returned TCR activator -1%, ELG1 repair inh 2%, KCNH2 3.1 block 3, AT treatment 2%, TRPV1 agonist -1, Eya2 inh 9%, KCNH2 WT inh 8, USP2a block 0% and Mito fusion act 3%.
COc1ccccc1OCc1nnc(SCC(=O)Nc2ccc(C)cc2)n1C was read as TCR activator -6%, ELG1 repair inh 6%, KCNH2 3.1 block 13, AT treatment 0%, TRPV1 agonist -2, Eya2 inh 1%, KCNH2 WT inh -1, USP2a block 2% and Mito fusion act 5%.
Screening Cc1ccc(-c2c(NCCc3ccccc3)c(=O)c2=O)cc1 returned TCR activator -3%, ELG1 repair inh 6%, KCNH2 3.1 block 3, AT treatment 4%, TRPV1 agonist 9, Eya2 inh inconclusive, KCNH2 WT inh 8, USP2a block 2% and Mito fusion act -5%.
CCn1c(CNC(=O)COc2ccc(C(C)C)cc2)nnc1SCC(=O)Nc1ccccc1 was read as TCR activator -3%, ELG1 repair inh inconclusive, KCNH2 3.1 block -16, AT treatment -1%, TRPV1 agonist -2, Eya2 inh -24%, KCNH2 WT inh 34, USP2a block -2% and Mito fusion act 0%.

Next section; it opens with the four that closed the last part.
Screening Cc1ccc(S(=O)(=O)Nc2cc(=O)[nH]c(SCC(=O)Nc3ccccc3C(F)(F)F)n2)cc1 returned TCR activator -1%, ELG1 repair inh 2%, KCNH2 3.1 block 3, AT treatment 2%, TRPV1 agonist -1, Eya2 inh 9%, KCNH2 WT inh 8, USP2a block 0% and Mito fusion act 3%.
COc1ccccc1OCc1nnc(SCC(=O)Nc2ccc(C)cc2)n1C was read as TCR activator -6%, ELG1 repair inh 6%, KCNH2 3.1 block 13, AT treatment 0%, TRPV1 agonist -2, Eya2 inh 1%, KCNH2 WT inh -1, USP2a block 2% and Mito fusion act 5%.
Screening Cc1ccc(-c2c(NCCc3ccccc3)c(=O)c2=O)cc1 returned TCR activator -3%, ELG1 repair inh 6%, KCNH2 3.1 block 3, AT treatment 4%, TRPV1 agonist 9, Eya2 inh inconclusive, KCNH2 WT inh 8, USP2a block 2% and Mito fusion act -5%.
CCn1c(CNC(=O)COc2ccc(C(C)C)cc2)nnc1SCC(=O)Nc1ccccc1 was read as TCR activator -3%, ELG1 repair inh inconclusive, KCNH2 3.1 block -16, AT treatment -1%, TRPV1 agonist -2, Eya2 inh -24%, KCNH2 WT inh 34, USP2a block -2% and Mito fusion act 0%.
For NC(=O)C(c1ccc(Cl)cc1)c1ccc(Sc2ccccc2)nn1 (configuration not stated) the results were TCR activator -4%, ELG1 repair inh -14%, KCNH2 3.1 block 1, TRPV1 agonist -3, Eya2 inh -12%, KCNH2 WT inh -1, USP2a block 0% and Mito fusion act 1%.
`O=C(Cn1nnc2c(cnn2-c2ccc(F)cc2)c1=O)Nc1ccccc1C(F)(F)F` gave TCR activator -1%, ELG1 repair inh 0%, KCNH2 3.1 block 12, AT treatment 4%, TRPV1 agonist 3, Eya2 inh 6%, KCNH2 WT inh 13, USP2a block -1% and Mito fusion act 6%.
Clc1ccc(CN(Cc2ccc(Cl)cc2)c2nn[nH]n2)cc1 was read as TCR activator -9%, ELG1 repair inh inconclusive, KCNH2 3.1 block 15, AT treatment 5%, TRPV1 agonist -3, Eya2 inh -16%, KCNH2 WT inh -1, USP2a block -20% and Mito fusion act inconclusive.
`O=C(Nc1ccccc1C(=O)Nc1nnc(C(F)(F)F)s1)c1ccccc1Cl` gave TCR activator 7%, ELG1 repair inh 5.2µM*, KCNH2 3.1 block 0, AT treatment 9%, TRPV1 agonist 3, Eya2 inh -3%, KCNH2 WT inh 8, USP2a block 1% and Mito fusion act inconclusive.
Screening COc1ccccc1NC(=O)c1ccc2c(O)c(S(=O)(=O)c3ccccc3)c(=O)[nH]c2c1 returned TCR activator 5%, ELG1 repair inh 7%, KCNH2 3.1 block -13, AT treatment 7%, TRPV1 agonist -2, Eya2 inh 7%, KCNH2 WT inh 6, USP2a block 1% and Mito fusion act -8%.

An excerpt (hit frequency here may not be typical).
